From PubChem
Mtb betalactam: beta-lactam sensitization of Mtb H37Rv; M. tuberculosis H37Rv growth with meropenem, percent inhibition; hits of this screen are not shown here; 330,000 compounds, 0.27% hits; inhibition, % at 25 µM;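 active = about 74% or more and at least 40 points above the plate without the antibiotic, then above 30% in a dose series; inconclusive = first-round hits that could not be retested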;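 also: growth measured after seven days incubation then overnight dye step; 0% = bacteria only wells and 100% = bacteria with antibiotic; twin plates without the antibiotic show which effects depend on it; some results filed as inactive read as strong as hits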
YopH inh: YopH (Yersinia) phosphatase inhibition | AID 898 | fluorescence Ex485/Em525 | 140,000 compounds, 0.16% hits | inhibition, %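 (about 10 µM by stock and volumes)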;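 active = inhibition of 50% or more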;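 also: controls were vehicle for no effect and minimum signal wells for full effect; inactives centre near -20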
Mtb growth: M. tuberculosis H37Rv growth inhibitors, H37Rv strain (AID 1626); M. tuberculosis H37Rv growth inhibition; higher % means a stronger effect; one-dose inhibition, % at 10 µM; IC50 in µM for titrated hits; 220,000 compounds, 0.95% hits;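 active = confirmed in a dose series; inconclusive = inhibition above 80% but not taken into the dose series; inactive = below 80% or under 30% at every dose of the series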;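 also: bacteria incubated seven days before Alamar blue readout; 0% = bacteria only wells and 100% = bacteria with antibiotic wells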
Arbovirus anti: arbovirus infection inhibition | arbovirus infection cell-based antiviral screen | AID 1251 | 200,000 compounds, 0.37% hits | inhibition, % at 10 µM;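 active = inhibition from about 30%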;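 also: bluetongue infection of BSR cells; cell survival read as ATP light after 72 h; 0% = infected wells without compound and 100% = uninfected wells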
RecA intein inh: blocks M. tuberculosis RecA intein splicing; cell-free RecA intein splicing, fluorescence; P9WHJ3; AID 2221; inhibition, %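 (about 9 µM by stock and volumes)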; 290,000 compounds, 0.75% hits; in the data active = inhibition above about 30%; inconclusive = no clear call, values can overlap the other calls;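 also: 0% = vehicle wells and 100% = reference inhibitor control wells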
Target sequence (P9WHJ3 whole entry, looked up): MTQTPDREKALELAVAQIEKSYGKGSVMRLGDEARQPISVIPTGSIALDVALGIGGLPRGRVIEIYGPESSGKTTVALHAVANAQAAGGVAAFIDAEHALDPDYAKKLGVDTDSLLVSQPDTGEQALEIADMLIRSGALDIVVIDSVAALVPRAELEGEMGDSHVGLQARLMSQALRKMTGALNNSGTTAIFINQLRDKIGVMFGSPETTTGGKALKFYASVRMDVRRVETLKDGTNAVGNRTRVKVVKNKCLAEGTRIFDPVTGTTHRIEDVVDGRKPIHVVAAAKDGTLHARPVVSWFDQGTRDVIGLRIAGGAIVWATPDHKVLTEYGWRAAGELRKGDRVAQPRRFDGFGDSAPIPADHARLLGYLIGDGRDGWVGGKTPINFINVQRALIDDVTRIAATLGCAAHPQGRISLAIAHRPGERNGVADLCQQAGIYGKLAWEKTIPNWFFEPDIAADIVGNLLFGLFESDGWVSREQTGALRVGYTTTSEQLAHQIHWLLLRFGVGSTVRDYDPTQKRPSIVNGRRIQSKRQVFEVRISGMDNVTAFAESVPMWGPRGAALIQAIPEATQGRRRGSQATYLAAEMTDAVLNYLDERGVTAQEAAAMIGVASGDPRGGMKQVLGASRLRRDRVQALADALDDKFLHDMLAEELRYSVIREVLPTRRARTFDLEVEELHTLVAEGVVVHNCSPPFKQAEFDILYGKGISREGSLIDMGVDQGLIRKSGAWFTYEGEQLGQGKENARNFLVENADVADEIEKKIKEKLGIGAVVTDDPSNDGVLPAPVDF
Arbovirus anti repeat: recorded beside Arbovirus anti, whose call it bears; inhibition, %; measured here: 10K subset replicate screen; many hits read low in the repeat;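 first of two repeat runs on a subset; 0% = infected and 100% = uninfected wells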
Starred values were filed as active, the others as inactive; ? = inconclusive; . = not tested or not shown. Some of the compounds tested; rates above refer to the full screens.

SMILES | Mtb betalactam | YopH inh | Mtb growth | Arbovirus anti | RecA intein inh | others
CCN(CC(=O)Nc1c(F)cccc1F)C(=O)CSc1ccc(F)cc1 | -1 | . | . | . | -1.4
C/C(=N\Nc1ccc(Cl)c(C(=O)O)c1)c1ccc[nH]1 | -3 | . | -7% | . | -0.2
CCCCOC(=O)Cn1c(=N)n(CCC)c2ccccc21 | -6 | -9 | 1% | -1 | 6.9
Cc1cccc(NS(=O)(=O)c2cccs2)n1 | 3 | -8 | -4% | 10 | 3.1
COCCOc1cc(Nc2nnc(C(F)(F)F)s2)c(Cl)cc1Cl | 2 | -15 | -4% | 3 | 3.3
Cc1ccc(C)c(C(=O)COC(=O)c2cc([N+](=O)[O-])ccc2NCCO)c1 | 6 | -4 | 7% | 11 | -7.1
CC(C)CC(=O)Nc1ccc(C(=O)Cn2c(=O)oc3ccccc32)cc1 | 6 | . | 5% | -6 | -0.7
O=C(COC(=O)c1n[nH]c2ccccc12)NC(=O)NCc1ccco1 | -4 | -37 | 2% | 3 | 5.2
CSCCC(NC(=O)c1ccco1)C(=O)OCC(=O)N(Cc1ccccc1)C(C)(C)C (centres undefined) | -4 | . | . | . | -0.1
O=C(C1CCN(S(=O)(=O)c2cnc[nH]2)CC1)N(CCc1ccccc1)Cc1ccccc1 | 5 | . | -3% | 2 | 0.6
CC1CCN(C(=O)C(C)Cl)CC1 (centres undefined) | -6 | . | 2% | 4 | -3.2
C#CC(C)(CC)NC(=O)c1cc(OC)c(OC)c(OC)c1 (centres undefined) | -1 | -31 | . | 9 | 0.2
COc1ccccc1C(=O)Nc1nc(-c2ccc(S(=O)(=O)N3CCOCC3)cc2)cs1 | 1 | 2 | 8% | -2 | -0.2
O=C1c2cccc3cc(Br)cc(c23)C(=O)N1Nc1ccccc1 | -6 | -14 | 13% | -3 | 1.6
Cc1ccc(C(C)(C)C)cc1S(=O)(=O)N1CC(=O)Nc2ccccc21 | 4 | . | . | . | 8.2
CC1CCCN(CC(O)COC(c2ccccc2)c2ccccc2)C1 (centres undefined) | -3 | . | 5% | 0 | 1.6
CSc1nc(NCc2ccccc2)c2c3c(sc2n1)CN(C)CC3 | 73 | -24 | -7% | 7 | -3.2
CCC(c1nnnn1Cc1ccco1)N(Cc1cc2cc(C)cc(C)c2[nH]c1=O)CC1CCCO1 (centres undefined) | 3 | -51 | 7% | 0 | 14
COc1cc2cc(CN(Cc3cccs3)C(=S)Nc3ccccc3)c(=O)[nH]c2cc1OC | 5 | -20 | -2% | 3 | -1.7
Cc1cc(C(=O)N2CCc3ccccc3C2)on1 | -1 | . | . | . | -1.0
CCCc1nc2ccccc2[nH]1 | -5 | -10 | 4% | 4 | 0.7
CCc1ccc(OCC(=O)Nc2ccc(-c3nc4ccccc4o3)c(O)c2)cc1 | 50 | -34 | 6% | -1 | 3.0
COC(=O)N/N=C/c1cn(Cc2ccccc2Cl)c2ccccc12 | 47 | -20 | 10% | 2 | 2.5
CCOC(=O)c1nn(-c2ccc(F)cc2)c(=O)cc1OCC(=O)Nc1cccc(C)c1 | -10 | . | . | . | 0.5
CC(C(=O)O)n1nnc2ccccc21 (centres undefined) | -2 | . | 12% | . | 0.7

Reprinted at random: three records from the list.
SMILES | Mtb betalactam | YopH inh | Mtb growth | Arbovirus anti | RecA intein inh | others
CCc1ccc(OCC(=O)Nc2ccc(-c3nc4ccccc4o3)c(O)c2)cc1 | 50 | -34 | 6% | -1 | 3.0
COCCOc1cc(Nc2nnc(C(F)(F)F)s2)c(Cl)cc1Cl | 2 | -15 | -4% | 3 | 3.3
O=C(COC(=O)c1n[nH]c2ccccc12)NC(=O)NCc1ccco1 | -4 | -37 | 2% | 3 | 5.2

(continued)
SMILES | Mtb betalactam | YopH inh | Mtb growth | Arbovirus anti | RecA intein inh | others
O=S(=O)(NCc1ccc2c(c1)OCO2)c1cccc(F)c1 | 5 | . | . | . | 0.7
COc1ccc2cc(S(=O)(=O)N3CCOCC3)ccc2c1 | -4 | -12 | -6% | -4 | -0.1 | Arbovirus anti repeat=0
NC1CCCCC1N=Cc1c(O)n(Cc2ccc(F)cc2)c(=O)[nH]c1=O (centres undefined) | 8 | -12 | 2% | -2 | 2.0
CCOc1ccc(S(=O)(=O)N2CCN=C2Cc2ccccc2)cc1C | 4 | . | . | . | 1.3
Clc1ccccc1Cc1noc(CN2CCCCC2CCc2ccccn2)n1 (centres undefined) | 4 | . | 6% | 11 | 0.6
CC(=O)Nc1cccc(NC(=O)c2ccco2)c1 | 5 | -44 | -5% | -3 | -0.4 | Arbovirus anti repeat=-1
CC(=O)C1=C(C)Nc2ncnn2C1c1ccccc1Cl (centres undefined) | -6 | -30 | 4% | -6 | -3.6
O=C(CC1C(=O)NCCN1Cc1cccc(F)c1)NC1CCC1 (centres undefined) | -3 | . | . | . | -1.7
CN(C)S(=O)(=O)c1ccc(NC(=O)/C=C/c2ccccc2Cl)cc1 | 93 | -14 | ? | -13 | -1.4
CN1CCC(=O)N([C@H](CSc2ccc(Br)cc2)c2ccccc2)CC1 | -7 | . | -7% | . | 1.1
C=CCNC(=S)N(Cc1ccccc1)Cc1ccccc1 | 3 | . | 7% | 12 | 4.5
Cc1ccccc1Nc1nc(N)nc(-c2oc3ccccc3c2C)n1 | 38 | . | 22% | . | 7.8
CCc1ccc(Nc2ccc(C(N)=O)cc2[N+](=O)[O-])cc1 | 6 | -16 | 13% | -11 | -1.7
Cc1cc(OCC(=O)N(C)C)c2c(-c3ccccc3)cc(=O)oc2c1 | -2 | -37 | -11% | -5 | -0.8 | Arbovirus anti repeat=-5
Cn1c(COc2ccc(C(=O)O)cc2)nc2ccccc21 | 4 | . | . | . | 1.6
O=C1c2ccccc2NC(c2ccc(O)cc2)N1/N=C/c1ccc(O)cc1 (centres undefined) | 8 | -20 | -2% | 3 | -3.6
CCOc1ccc(S(=O)(=O)NCc2ccccn2)cc1NC(=O)c1ccccc1 | 5 | . | . | . | -0.4
O=C(Nc1cccnc1)c1ccc(N2CCCC2)c([N+](=O)[O-])c1 | -5 | . | -4% | -5 | 2.6
Cc1oc(-c2ccccc2Cl)nc1CN(C)C(C)c1ccon1 (centres undefined) | 4 | . | 11% | 1 | 0.6
CCN(CC(=O)NCc1cccs1)C(=O)CCc1c[nH]c2ccccc12 | -11 | . | -4% | -1 | -0.1
COc1cc(/C=C2\SC(=S)N(NS(=O)(=O)c3ccccc3)C2=O)cc(OC)c1OC | 16 | . | -10% | . | 0.6
COc1cc2c(C(=O)NCc3ccccn3)cn(CC(C)C)c(=O)c2cc1OC | -3 | -22 | -7% | 5 | 13 | Arbovirus anti repeat=3
Cc1ccc(N2C(=O)CC(Sc3ccccc3C(=O)O)C2=O)c([N+](=O)[O-])c1 (centres undefined) | 0 | . | -2% | 6 | -1.1

An excerpt from above in order of number of heavy atoms, falling:
SMILES | Mtb betalactam | YopH inh | Mtb growth | Arbovirus anti | RecA intein inh | others
CCC(c1nnnn1Cc1ccco1)N(Cc1cc2cc(C)cc(C)c2[nH]c1=O)CC1CCCO1 (centres undefined) | 3 | -51 | 7% | 0 | 14
O=C(C1CCN(S(=O)(=O)c2cnc[nH]2)CC1)N(CCc1ccccc1)Cc1ccccc1 | 5 | . | -3% | 2 | 0.6
COc1ccccc1C(=O)Nc1nc(-c2ccc(S(=O)(=O)N3CCOCC3)cc2)cs1 | 1 | 2 | 8% | -2 | -0.2
COc1cc(/C=C2\SC(=S)N(NS(=O)(=O)c3ccccc3)C2=O)cc(OC)c1OC | 16 | . | -10% | . | 0.6
CCc1ccc(OCC(=O)Nc2ccc(-c3nc4ccccc4o3)c(O)c2)cc1 | 50 | -34 | 6% | -1 | 3.0
Clc1ccccc1Cc1noc(CN2CCCCC2CCc2ccccn2)n1 (centres undefined) | 4 | . | 6% | 11 | 0.6
Cc1ccc(C)c(C(=O)COC(=O)c2cc([N+](=O)[O-])ccc2NCCO)c1 | 6 | -4 | 7% | 11 | -7.1
CCN(CC(=O)Nc1c(F)cccc1F)C(=O)CSc1ccc(F)cc1 | -1 | . | . | . | -1.4
CN1CCC(=O)N([C@H](CSc2ccc(Br)cc2)c2ccccc2)CC1 | -7 | . | -7% | . | 1.1
CSc1nc(NCc2ccccc2)c2c3c(sc2n1)CN(C)CC3 | 73 | -24 | -7% | 7 | -3.2
O=C(CC1C(=O)NCCN1Cc1cccc(F)c1)NC1CCC1 (centres undefined) | -3 | . | . | . | -1.7
Cn1c(COc2ccc(C(=O)O)cc2)nc2ccccc21 | 4 | . | . | . | 1.6
CC(=O)C1=C(C)Nc2ncnn2C1c1ccccc1Cl (centres undefined) | -6 | -30 | 4% | -6 | -3.6
C/C(=N\Nc1ccc(Cl)c(C(=O)O)c1)c1ccc[nH]1 | -3 | . | -7% | . | -0.2
Cc1cc(C(=O)N2CCc3ccccc3C2)on1 | -1 | . | . | . | -1.0
Cc1cccc(NS(=O)(=O)c2cccs2)n1 | 3 | -8 | -4% | 10 | 3.1
CC(C(=O)O)n1nnc2ccccc21 (centres undefined) | -2 | . | 12% | . | 0.7
CCCc1nc2ccccc2[nH]1 | -5 | -10 | 4% | 4 | 0.7
